MbtI inh: MbtI salicylate synthase inhibition | purified MbtI enzyme, fluorescence intensity read-out | actives 0.89% (n = 100,000) | inhibition, %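 (about 17 µg/mL by stock and volumes)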;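 active = above 50% in both replicates, above 80% if mildly self-fluorescent; inactive = the rest, strongly fluorescent compounds included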;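 note: 0% = mean of negative and 100% = mean of positive controls; one replicate is shown; some compounds called inactive have numbers as strong as hits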
Target sequence (P9WFX0 whole entry, looked up): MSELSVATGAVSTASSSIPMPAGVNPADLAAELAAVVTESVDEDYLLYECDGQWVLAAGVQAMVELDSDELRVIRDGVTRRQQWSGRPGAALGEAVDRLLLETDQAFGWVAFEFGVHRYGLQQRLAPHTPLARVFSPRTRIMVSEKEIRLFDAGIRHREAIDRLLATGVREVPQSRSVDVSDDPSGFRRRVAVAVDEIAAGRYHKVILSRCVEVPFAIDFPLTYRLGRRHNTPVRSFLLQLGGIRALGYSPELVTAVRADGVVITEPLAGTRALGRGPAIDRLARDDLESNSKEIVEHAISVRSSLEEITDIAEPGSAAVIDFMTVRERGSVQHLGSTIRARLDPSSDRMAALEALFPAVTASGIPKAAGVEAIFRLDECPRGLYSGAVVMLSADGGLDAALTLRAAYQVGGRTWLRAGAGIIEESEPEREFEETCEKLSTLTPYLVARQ
PV pol inh: inhibitors of poliovirus RNA polymerase binding and polymerization | P03300 | poliovirus polymerase elongation, fluorescence polarization; active compounds read low | % elongation, % (compound at 16.7 µg/mL) | actives 0.66% (n = 150,000) | AID 588519; in the data active = % elongation below about 90%; note: some results filed as inactive read as strong as hits
Target sequence (P03300 1749-2209 limits assumed): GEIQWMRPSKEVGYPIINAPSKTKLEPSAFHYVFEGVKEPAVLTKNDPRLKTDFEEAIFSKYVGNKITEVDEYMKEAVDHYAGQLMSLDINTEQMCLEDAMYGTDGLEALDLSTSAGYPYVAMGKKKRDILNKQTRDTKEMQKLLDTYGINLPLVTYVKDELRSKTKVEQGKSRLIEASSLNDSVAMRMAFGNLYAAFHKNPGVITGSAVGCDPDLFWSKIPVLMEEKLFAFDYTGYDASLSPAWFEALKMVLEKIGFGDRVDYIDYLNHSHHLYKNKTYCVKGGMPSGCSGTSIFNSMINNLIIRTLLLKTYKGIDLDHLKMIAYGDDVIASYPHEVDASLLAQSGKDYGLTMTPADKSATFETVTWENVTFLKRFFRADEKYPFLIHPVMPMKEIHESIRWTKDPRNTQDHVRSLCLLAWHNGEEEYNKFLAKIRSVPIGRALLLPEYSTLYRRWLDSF
Mtb MenB inh: blocks the Mycobacterium tuberculosis MenB enzyme; actives 0.43% (n = 100,000); MenB enzyme assay, absorbance read-out; some hits fall short of the stated cut; inhibition, %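 (about 12 µg/mL by stock and volumes)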; AID 540299;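 active = mean of two replicates above 30%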;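 note: 0% = no compound and 100% = wells with inactive enzyme; the first replicate is given; strong numbers were not always called active; inactives centre near -10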
PV pol inh intensity: recorded beside PV pol inh, whose call it bears; % elongation; measured here: total intensity read-out; formula for this scale not given here;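 total fluorescence in place of polarization; lower means less elongation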
The depositor's hits bear a star; . = no result given. Compounds were not picked by outcome; about 2% have a hit in one of these screens.

Each structure is followed by: MbtI inh, PV pol inh, PV pol inh intensity, Mtb MenB inh
1: Cc1nc2ccc(NS(=O)(=O)c3ccccc3C(F)(F)F)cc2s1
 : 3, 99, 98, -5
2: C/C=C/C1(/[N+]([O-])=C/c2ccccc2)CCCCC1
 : -1, 101, 104, -11
3: CCOc1ccccc1NC(=O)c1ccccc1O
 : 24, 100, 100, .
4: CS(=O)(=O)c1ccc(CC(=O)O)cc1
 : -12, 104, 105, -19
5: Cc1cc2c(cc(C(=O)NCc3ccc(Cl)cc3)n2Cc2ccc(Cl)cc2)o1
 : 28, 104, 100, -10
6: CCOC(=O)Cn1c(=O)n(CCc2ccc(OC)c(OC)c2)c(=O)c2cccnc21
 : -8, 101, 103, -9
7: O=C(Nc1cccnc1)c1cc2c(s1)-c1ccccc1CC2
 : -55, 101, 99, -2
8: CCc1ccc(N2C(=O)c3ccccc3NC2(C)C)cc1
 : ., 104, 108, -15
9: CN(Cc1ccccc1)c1nc2c(c(=O)[nH]c(=O)n2C)n1CCCOc1ccccc1
 : -11, ., ., -18
10: Cc1cc(C)c(S(=O)(=O)N2CCc3ccccc32)c(C)c1
 : ., 142, 164, -17
11: O=C(NCC1COc2ccccc2O1)c1cc(-c2ccco2)nc2ccccc12 (stereo unspecified)
 : 109, 119, 117, -14
12: Cc1nc2cc(C(=O)O)ccc2n1-c1ccc(Br)cc1
 : -1, 101, 96, -25
13: Cc1ccc(Nc2nnc(-c3ccc(C)c(S(=O)(=O)NCC4CCCO4)c3)c3ccccc23)cc1 (stereo unspecified)
 : 6, 103, 98, -16
14: CN(C)C(=O)N1CCC(Cc2ccccc2)CC1
 : 1, 102, 100, 13
15: O=C(Nc1ccc(S(=O)(=O)N2CCCCC2)cc1)c1cc(-c2cccs2)nc2ccccc12
 : 188, 102, 105, -30
16: O=C(CCCC(=O)c1ccccc1)Nc1ccc2c(c1)CCC2
 : -7, 102, 102, -18
17: Cc1cc(NC(=O)c2ccc(NS(=O)(=O)c3ccc(F)cc3)cc2)no1
 : -3, 102, 101, -39
18: CC(=O)n1c2ccccc2c2cc(Cl)ccc21
 : -4, 103, 100, -56
19: CCCc1cc(=O)[nH]c(SCC(=O)c2ccc3c(c2)CCN3S(=O)(=O)CC)n1
 : 1, 106, 106, -23
20: O=c1c(-c2ccccc2)nnc2c3ccccc3ncn12
 : 2, 104, 98, -13
21: O=C(CCc1c[nH]c2ccccc12)OCC(=O)N1CCc2ccccc21
 : 2, ., ., 4
22: c1ccc2nc3c(nc2c1)CCCC3
 : 2, 103, 100, 4
23: Cc1ccc2nc(=S)nc(-c3ccccc3)n2c1
 : ., 99, 106, -10
24: CC1=NN(c2ccccc2)C(=O)C1C=NC1CCS(=O)(=O)C1 (stereo unspecified)
 : ., 101, 107, 7
25: O=C(CSc1nc2ccccc2nc1N1CCCC1)Nc1ccccc1
 : -8, 105, 110, -21
26: Cc1cc(OCC(=O)O)c2ccccc2n1
 : 3, 104, 102, -45
27: CC(C)Cc1ccc(C(C)C(=O)NC(C)C)cc1 (stereo unspecified)
 : 2, 100, 105, 6
28: CC(C(=O)c1ccccc1)[n+]1ccc2ccccc2c1 (stereo unspecified)
 : 9, 104, 101, 4
29: Oc1ccc(Cl)cc1-c1cc(-c2ccco2)[nH]n1
 : 76, 103, 99, .
30: O=C(NCCC(=O)N1CCN(C/C=C/c2ccccc2)CC1)c1ccc(Cl)cc1
 : 4, 104, 105, -7

Individual results from above.
entry 20 @ MbtI inh: 2
entry 15 @ PV pol inh: 102

Continued:
Each structure is followed by: MbtI inh, PV pol inh, PV pol inh intensity, Mtb MenB inh
31: Cc1cc(-n2c(C)cc(CNC3CCN(Cc4ccccc4)C3)c2C)no1 (stereo unspecified)
 : -4, 105, 105, 2
32: O=C(NCc1cccs1)c1cc(=O)[nH]c2ccc(S(=O)(=O)N3CCCC3)cc12
 : 7, 101, 101, -26
33: COC(=O)C1=C(C)N(C)C(=S)NC1c1ccccc1 (stereo unspecified)
 : -11, 106, 108, -30
34: c1ccc(C(c2ccccc2)N2CCN(c3ncnc4nc[nH]c34)CC2)cc1
 : -20, 102, 103, -8
35: Brc1cccc(COc2ccc(-c3nnco3)cc2)c1
 : -8, 103, 107, -25
36: CCn1c(-c2ccccc2Cl)nc2ccccc21
 : -8, 101, 98, -23
37: S=c1[nH]cc(-c2ccc(Br)cc2)[nH]1
 : 39, 97, 101, -22
38: c1ccc(-c2nnc(Sc3ncnc4c3oc3ccccc34)o2)cc1
 : 13, 100, 104, -16
39: Cc1ccccc1OCC(=O)NN1C(=O)C2C3C=CC(O3)C2C1=O (stereo unspecified)
 : 33, 99, 99, 1
40: C=CCN(CC(=O)Nc1cccnc1)S(=O)(=O)c1ccc(Cl)cc1
 : -12, 103, 106, -4
41: Cc1ccc(-c2nn(-c3ccccc3)cc2/C=N/O)cc1
 : -5, 101, 94, -10
42: CSc1ncc(C(=O)NC2CCN(Cc3ccccc3)CC2)c(C)n1
 : -3, 103, 107, -6
43: O=C(O)CCCOc1ccc(Br)cc1
 : 2, 104, 105, .
44: N#CCOC(=O)c1ccc2c(c1)S(=O)(=O)N=C1CCCCCN12
 : -9, 96, 103, 2
45: FC(F)(F)c1cc(Cl)c2ncc(-c3ccc(Br)s3)nc2c1
 : -9, 106, 106, -6
46: O=C(c1cc2ccc3cccnc3c2[nH]1)N1CCCC1
 : -2, 101, 103, -4
47: O=C(CN1C(=O)c2ccccc2C1=O)Nc1ncn[nH]1
 : ., 100, 105, -13
48: CN(C)CCCNc1nc(-c2ccc(Cl)cc2)cs1
 : 14, 100, 98, -53
49: Cc1cc(C2=NNC(=NCC3CCCO3)SC2)c(C)n1-c1ccc(F)cc1 (stereo unspecified)
 : 4, 106, 105, -25
50: CN(C)/C(=N\S(=O)(=O)c1ccc(F)cc1)c1ccccc1
 : -15, 102, 103, -4
51: Cc1ccc(/C=C2/Sc3ccccc3N(CC(=O)NCCCN3CCN(C)CC3)C2=O)cc1
 : 18, 102, 99, -16
52: Cc1ccc(-c2csc(NC(=O)C(C)C)n2)cc1
 : ., 103, 97, -11
53: COc1ccc(S(=O)(=O)N(CCc2ccccc2)CC(=O)Nc2cccc(Cl)c2)cc1OC
 : -6, 102, 106, -28
54: O=C(Nc1ccccc1)Nc1ccccc1C(=O)N1CCOCC1
 : ., 106, 111, 3
55: Nc1cc(=O)n(Cc2ccccc2)c(=O)n1-c1ccccc1
 : -4, 111, 112, -20
56: Cc1ccc(C(=O)NS(=O)(=O)c2ccccc2)cc1
 : -27, 101, 102, -62
57: COc1cccc(CNC(=O)COC(=O)C2CCN(S(=O)(=O)c3ccc(C)cc3)CC2)c1
 : -10, 103, 100, -53
58: Cc1cc(C)nc(SCc2ccc(C(=O)NN)cc2)n1
 : 8, 103, 102, -9
59: COc1ccc(CNC(=O)C(C)Sc2nc3ccccc3n2C)cc1 (stereo unspecified)
 : -18, 104, 109, -1
60: CCCCCCN1CC(O)=C(c2nc3ccccc3[nH]2)C1=N
 : 7, 101, 99, -8

Sorted by molecular weight (largest number first): part of the list above
Each structure is followed by: MbtI inh, PV pol inh, PV pol inh intensity, Mtb MenB inh
51: Cc1ccc(/C=C2/Sc3ccccc3N(CC(=O)NCCCN3CCN(C)CC3)C2=O)cc1
 : 18, 102, 99, -16
57: COc1cccc(CNC(=O)COC(=O)C2CCN(S(=O)(=O)c3ccc(C)cc3)CC2)c1
 : -10, 103, 100, -53
32: O=C(NCc1cccs1)c1cc(=O)[nH]c2ccc(S(=O)(=O)N3CCCC3)cc12
 : 7, 101, 101, -26
45: FC(F)(F)c1cc(Cl)c2ncc(-c3ccc(Br)s3)nc2c1
 : -9, 106, 106, -6
31: Cc1cc(-n2c(C)cc(CNC3CCN(Cc4ccccc4)C3)c2C)no1 (stereo unspecified)
 : -4, 105, 105, 2
42: CSc1ncc(C(=O)NC2CCN(Cc3ccccc3)CC2)c(C)n1
 : -3, 103, 107, -6
38: c1ccc(-c2nnc(Sc3ncnc4c3oc3ccccc34)o2)cc1
 : 13, 100, 104, -16
44: N#CCOC(=O)c1ccc2c(c1)S(=O)(=O)N=C1CCCCCN12
 : -9, 96, 103, 2
39: Cc1ccccc1OCC(=O)NN1C(=O)C2C3C=CC(O3)C2C1=O (stereo unspecified)
 : 33, 99, 99, 1
54: O=C(Nc1ccccc1)Nc1ccccc1C(=O)N1CCOCC1
 : ., 106, 111, 3
50: CN(C)/C(=N\S(=O)(=O)c1ccc(F)cc1)c1ccccc1
 : -15, 102, 103, -4
60: CCCCCCN1CC(O)=C(c2nc3ccccc3[nH]2)C1=N
 : 7, 101, 99, -8
58: Cc1cc(C)nc(SCc2ccc(C(=O)NN)cc2)n1
 : 8, 103, 102, -9
41: Cc1ccc(-c2nn(-c3ccccc3)cc2/C=N/O)cc1
 : -5, 101, 94, -10
33: COC(=O)C1=C(C)N(C)C(=S)NC1c1ccccc1 (stereo unspecified)
 : -11, 106, 108, -30
47: O=C(CN1C(=O)c2ccccc2C1=O)Nc1ncn[nH]1
 : ., 100, 105, -13
52: Cc1ccc(-c2csc(NC(=O)C(C)C)n2)cc1
 : ., 103, 97, -11
36: CCn1c(-c2ccccc2Cl)nc2ccccc21
 : -8, 101, 98, -23

Next part
Each structure is followed by: MbtI inh, PV pol inh, PV pol inh intensity, Mtb MenB inh
61: CC1CCCN(C(=O)C2CCCN(S(=O)(=O)c3cccc4nsnc34)C2)C1 (stereo unspecified)
 : -1, 98, 103, 6
62: O=C(CC1Sc2ccccc2NC1=O)Nc1ccc(N2CCOCC2)cc1 (stereo unspecified)
 : -5, 101, 103, 0
63: O=C(CSc1ccccn1)c1c[nH]c2ccccc12
 : 41, 108, 113, -7
64: Cc1onc(-c2ccccc2)c1C(=O)N1CCN(S(=O)(=O)c2ccccc2)CC1
 : -12, 102, 103, -11
65: CCOc1ccc2nc(Nc3nc(O)cc(=O)[nH]3)nc(C)c2c1
 : 24, 103, 95, 3
66: CCN(Cc1ccccc1)C(=O)c1cc(-c2ccc(C)c(C)c2)n[nH]1
 : -4, 102, 102, -31
67: O=C(Cn1ncc(Cl)c(Cl)c1=O)N1CCCCCC1
 : 11, 92, 93, 5
68: N#Cc1ccc(NC(=O)c2ccc(Br)cc2)cc1
 : 23, 99, 98, .
69: CCn1cc(/C=C(\NC(=O)c2ccccc2)C(=O)NCc2ccco2)c2ccccc21
 : 1, 103, 102, 2
70: CCN1C2OC(C3OC4C(O3)N(CC)S(=O)(=O)N4CC)OC2N(CC)S1(=O)=O (stereo unspecified)
 : -13, 104, 99, -34
71: C=CCn1c(SCC(=O)Nc2ccc3[nH]c(=O)[nH]c3c2)nc2ccccc2c1=O
 : 14, 101, 97, -14
72: C=CCOC(=O)c1sc(N2C(=O)c3oc4ccc(F)cc4c(=O)c3C2c2ccc(O)cc2)nc1C (stereo unspecified)
 : -6, 102, 107, -17
73: CC(=O)NC(CC(=O)O)c1ccccc1 (stereo unspecified)
 : -15, 104, 105, .
74: CN1C2=NCCN2C(=O)c2ccccc21
 : 8, 101, 103, 0
75: CC(NC(=O)C1CCN(C(=O)c2cc3sccc3n2C)CC1)C12CC3CC(CC(C3)C1)C2 (stereo unspecified)
 : 0, 105, 102, -1
76: COc1ccc(OCC(=O)N2CC(C)CC(C)C2)cc1 (stereo unspecified)
 : -6, 101, 106, 4
77: Cc1ccc(NC(=O)CC2C=CCC2)cc1 (stereo unspecified)
 : -3, 106, 107, -35
78: CCOC(=O)c1c(C)[nH]c(C(=O)OCC(N)=O)c1C
 : 0, 96, 105, -14
79: CC(=O)Nc1ccc(NC2OC(=O)c3ccccc32)cc1 (stereo unspecified)
 : -3, 105, 99, -65
80: Cc1nc(-c2cc(C#N)c(Sc3cccc(C(F)(F)F)c3)nc2C)cs1
 : -1, 109, 101, -8
81: Brc1ccc2[nH]cc(/C=N/N3CCCCC3)c2c1
 : 0, 104, 104, -3
82: CC(=Nc1ccc(Cl)cc1)c1cccs1
 : 11, 104, 110, -19
83: CCCn1c2c(c(=N)c3c1CCC3)CCC2
 : -4, 102, 100, -14
84: CCCCCn1c(Br)nc2c1c(=O)n(CC(N)=O)c(=O)n2C
 : -13, 101, 101, -3
85: COc1ccc(-c2c(C(F)(F)F)nn(C)c2NC(C)=O)cc1
 : -12, 103, 105, -17
86: Cc1ccc(C(=O)OCC(=O)N2CCOCC2)c(C)c1
 : -9, 103, 113, .
87: COc1ccccc1C(C)NC(=O)c1ccc(=O)[nH]c1 (stereo unspecified)
 : 5, 99, 103, 9
88: CCOc1ccc(-n2c(SC(C)C(=O)NCc3ccco3)nnc2-c2ccccc2Cl)cc1 (stereo unspecified)
 : 13, 102, 104, -21
89: CN=Cc1cc(-c2ccccc2)n(C)c1S
 : 98*, 101, 97, -144
90: O=C(Nc1ccccc1)N(C1=NCCC1)c1ccccc1
 : -8, 104, 97, -29
91: Cc1ccc(-n2nnnc2SCC(=O)Nc2cccc3nsnc23)c(C)c1
 : -4, 106, 102, -39
92: O=C1O[C@@H]2C[C@H]3C[C@@H]2[C@@H]1[C@H]3C(=O)N1CCC(C(O)(c2ccccc2)c2ccccc2)CC1
 : -10, 100, 102, -3

From PubChem BioAssay
